# MARV entry inh = qHTS for inhibitors of binding or entry into cells for Marburg Virus. Marburg virus pseudotyped entry inhibition, cell reporter; control for the full effect not named in the record; about a third of the inactives were read at about 46 µM. Potency, µM (titrated, usually from 37.8 µM), for inactives: at the highest dose activity change, negative = inhibition, usual class: inhibitors. actives 1.8% (n = 300,000). AID 540276, 2011; active = well fitted inhibition curve with a large enough effect; inconclusive = small, poorly fitted or top-dose-only effect, or effect the other way; inactive = flat fitted curve, though single readings scatter; tested in HEK293 cells; about a fifth of its hits are not listed in these tables; also: % is scaled to controls: 0 for no effect and ±100 for the full control effect; luciferase read-out
# NS1 inh = qHTS Assay for Inhibitors of Influenza NS1 Protein Function. Potency, µM (doses to about 46.1 µM), inactives show at the highest dose activity, positive = more growth. actives 0.4% (n = 270,000). AID 2326, 2010. S. cerevisiae slowed by influenza A NS1, growth recovery by OD600; active means well fitted rising curve with a large enough effect; inconclusive means small, poorly fitted or top-dose-only effect; inactive means no such curve, though single readings can be large or run the other way; also: nearly all actives have a fitted effect of over 50% in size
#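 Growth recovery, yeast-based: influenza A NS1 expressed in S. cerevisiae causes slow growth, and suppressors are detected by OD600. The parent strain without NS1 is used as positive control.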
# LASV entry inh = qHTS for Inhibitors of binding or entry into cells for Lassa Virus | AID 540256, 2011 | Potency, µM (top dose mostly 37.9 µM), for inactives: at the highest dose activity change, negative = inhibition, hits mostly inhibitors | Lassa virus pseudotype entry inhibition, cell reporter; control for the full effect not named in the record | actives 1.2% (n = 300,000); active means well fitted inhibition curve with a large enough effect; inconclusive means small, poorly fitted or top-dose-only effect, or effect the other way; inactive means flat fitted curve, though single readings scatter; tested in HEK293 cells; also: % is scaled to controls: 0 for no effect and ±100 for the full control effect; nearly all actives have a fitted effect of over 50% in size; luciferase read-out
# StopGo reporter = High Throughput Screening for Foot and Mouth Disease Virus Antivirals. AID 1159524, 2015. human cells with a luciferase reporter of 2A StopGo recoding; control for the full effect not named in the record. actives 1.2% (n = 410,000). Potency, µM (top dose mostly 57.9 µM), without a hit: top-dose signal change, negative = less light; active = well fitted falling curve with a large enough effect; inconclusive = small, poorly fitted or top-dose-only effect; inactive = no such curve, though single readings can be large or run the other way; tested in HEK293T cells; also: % is scaled to controls: 0 for no effect and ±100 for the full control effect; nearly all actives have a fitted effect of over 45% in size; luciferase light after 4 h
# RE007 growth inh = qHTS Assay for Inhibitors of the HIV-1 protein Vpr | Potency, µM (doses to about 92.2 µM), without a hit: top-dose activity change, negative = less growth | S. pombe RE007 Vpr strain, BacTiter-Glo ATP luminescence, 24 h; control for the full effect not named in the record | actives 0.21% (n = 360,000); active = well fitted falling curve with a large enough effect; inconclusive = small, poorly fitted or top-dose-only effect; inactive = no such curve, though single readings can be large or run the other way;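 also: % is scaled to controls: 0 for no effect and ±100 for the full control effect; nearly all actives have a fitted effect of over 50% in size; the assay follows cell death caused by Vpr and the record does not say whether a fall means rescue or toxicity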
#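 Fission yeast strain RE007, carrying one chromosomally integrated HIV-1 vpr copy, was seeded at OD 0.01 in PMG+AL medium with 23 nL pinned compound. After 24 h at 30 °C and 99% humidity, viability was read by BacTiter-Glo luminescence.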
# SARS PLpro yeast = qHTS of Yeast-based Assay for SARS-CoV PLP; S. cerevisiae expressing SARS-CoV PLpro, growth rescue; control for the full effect not named in the record; Potency, µM (highest dose often 32.9 µM), inactives show at the top dose activity, positive = growth rescue; actives 0.19% (n = 330,000); active means well fitted rising curve with a large enough effect; inconclusive means small, poorly fitted or top-dose-only effect; inactive means no such curve, though single readings can be large or run the other way; also: 0% is about no effect; nearly all actives have a fitted effect of over 55% in size; growth read by luminescence after 48 h
# Cruzain inh Det = qHTS Assay for Promiscuous and Specific Inhibitors of Cruzain (with detergent). purified cruzain, Z-FR-AMC fluorescence, 0.01% Triton. Potency, µM, for the others: max response, negative = inhibition, usual class: inhibitors. actives 0.43% (n = 200,000). AID 1478, 2009;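 also: plate controls were neutral wells for no effect and buffer without enzyme for full effect; nearly all actives have a fitted effect of over 40% in size; top concentration of the series not given in the record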
# Target sequence (P25779 123-467 limits assumed): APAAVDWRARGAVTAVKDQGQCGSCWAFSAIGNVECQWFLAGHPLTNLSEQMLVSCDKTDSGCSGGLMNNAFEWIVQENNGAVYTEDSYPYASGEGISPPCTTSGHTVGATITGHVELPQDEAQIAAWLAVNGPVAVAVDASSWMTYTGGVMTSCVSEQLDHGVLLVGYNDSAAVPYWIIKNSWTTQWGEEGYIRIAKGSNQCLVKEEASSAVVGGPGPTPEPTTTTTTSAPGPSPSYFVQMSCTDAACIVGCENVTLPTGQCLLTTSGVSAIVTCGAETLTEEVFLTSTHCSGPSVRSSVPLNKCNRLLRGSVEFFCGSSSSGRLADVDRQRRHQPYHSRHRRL
#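 Cysteine protease activity tested under reducing, mildly acidic conditions (100 mM sodium acetate pH 5.5, 5 mM DTT) plus 0.01% Triton X-100. Cruzain 1.5 nM; substrate Z-FR-AMC 2 uM; 15 min compound preincubation at room temperature.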
# Cruzain inh noDet = qHTS Assay for Promiscuous and Specific Inhibitors of Cruzain (without detergent); AID 1476, 2009; purified cruzain, Z-FR-AMC fluorescence, no detergent; Potency, µM, for the others: max response, negative = inhibition, most hits filed as inhibitors; actives 2.3% (n = 200,000);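 also: plate controls were enzyme without inhibitor for no effect and buffer without enzyme for full effect; nearly all actives have a fitted effect of over 40% in size; top concentration of the series not given in the record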
#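 Purified cruzain at 1.5 nM, pre-incubated 15 min with compound at room temperature in 100 mM sodium acetate pH 5.5, 5 mM DTT, 0.00005% Triton X-100. Reaction started with 2 uM Z-FR-AMC; AMC fluorescence increase over 60 s gives rate.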
# Numbers without * were called inactive; ? = inconclusive; . = not tested or not shown; & = joins results of further samples; [ ] = dose if it differs, or a comment. Unless noted, calls follow the shape of the dose curve; as a rule, active = well fitted curve in the direction sought with a large enough effect; inconclusive = small, poorly fitted or top-dose-only effect, or another doubt; inactive = no such curve, though single readings can be large; an effect the other way counts as inactive or inconclusive. Potency is read from the fitted curve at half-maximal effect.
cpd	SMILES	MARV entry inh	NS1 inh	LASV entry inh	StopGo reporter
1	COc1ccc(-n2c(O)c(C(C)=NCc3ccco3)c(=O)[nH]c2=O)cc1	25%	15%	?	1%
2	CCOC(=O)C(O)(c1ccc(N)c(OC)c1)C(F)(F)F (stereo not given)	21%	0%	15%	1%
3	COc1ccc(CNC(=O)C2=C(C)C(=O)OC23CCC(C)CC3)cc1 (stereo not given)	.	-2%	.	8%
4	CCOc1cc(C2NC(=O)CCC2[N+](=O)[O-])cc(Br)c1OCC (stereo not given)	.	2%	.	-1%
5	CCCCN1C2CCCC1CC(NC(=O)c1cccc(OC)c1)C2 (stereo not given)	-20%	4%	-8%	-20%
6	COC(=O)c1ccc(COC(=O)CNC(=O)CNC(=O)c2ccc(OC)cc2)cc1	-9%[46.1 µM]	.	-16%	-2%
7	Cc1ccc(NS(=O)(=O)c2ccc3c(c2)N(C)CCO3)cc1	.	-13%	.	55%[activator]
8	CCCn1c(=O)n(C)c(=O)c2c(SC(C)C(=O)NCC3CCCO3)nc(CC(C)C)nc21 (stereo not given)	?	.	-17%	-17%
9	COc1cc(NC(=O)COc2ccc(F)cc2)nc(OC)n1	-1%	-16%	8%	.
10	O=C1CCC(C(=O)Nc2cccc(Oc3ccccc3)c2)=NN1	?	.	-9%[46.1 µM]	11%
11	Cc1nc(CC(C)C)cc(C(=O)N2CCCC(Nc3ccc(C)c(C)c3)C2)n1 (stereo not given)	7%	1%	-5%	0%
12	c1ccc(CO/N=C(\c2ccc(C3CC3)nc2)C2CC2)cc1	?	-37%	?	-5%
13	Nc1n[nH]c(-c2ccc(Br)cc2)c1Cl	-8%	-43%	2%	-5%
14	CC1=NN(c2ccc(C(=O)OC(C)C)cc2)C(=O)/C1=C\C=C\c1ccco1	-25%	11µM*	-5%	-11%
15	O=[N+]([O-])/C=C1\CCCCCN1	-2%[46.1 µM]	0%	.	-12%

cpd	RE007 growth inh	SARS PLpro yeast	Cruzain inh Det	Cruzain inh noDet
1	9%	15%	-3.2%	6%
2	1%	-7%	6.0%	1%
3	6%	4%	-2.1%	3%
4	2%	1%	.	.
5	1%	1%	.	.
6	0%	.	.	.
7	-20%	-2%	.	.
8	17%	-1%	.	.
9	8%	-1%	-0.1%	3%
10	-11%	-1%	.	.
11	-2%	20%	.	.
12	-2%	-2%	.	.
13	-11%	-10%	0.3%	-1%
14	-10%	?	-6.7%	30%
15	3%	0%	.	.

# Overlap with the part before: two compounds; new compounds follow.
cpd	SMILES	MARV entry inh	NS1 inh	LASV entry inh	StopGo reporter
14	CC1=NN(c2ccc(C(=O)OC(C)C)cc2)C(=O)/C1=C\C=C\c1ccco1	-25%	11µM*	-5%	-11%
15	O=[N+]([O-])/C=C1\CCCCCN1	-2%[46.1 µM]	0%	.	-12%
16	C/C(=N/O)c1c(O)c(C)c(-c2ccccc2)n(-c2ccccc2)c1=O	4%	15%	-12%	-22%
17	CCOc1ncccc1C(=O)N(CC)CC(=O)Nc1ccc(NC(C)=O)cc1	18%	1%	18%	-24%
18	CN1CCc2c(sc(N)c2C(=O)c2ccc(Cl)cc2)C1	1%[46.1 µM]	-2%	-1%[46.1 µM]	-1%
19	COc1ccc(C2=NN(C(=O)CSc3ncccn3)C(c3ccc(C)cc3)C2)cc1 (stereo not given)	?	14%	?	-6%
20	CCNC(=S)NCC	.	.	.	-5%
21	N#Cc1cccc(C(c2nnnn2C2CCCC2)N2CCCCCC2)c1 (stereo not given)	?	-15%	?	22%
22	Cc1cccc(NC(=S)NNC(=O)c2ccc(O)cc2O)c1C	?	4%	5%[46.1 µM]	15%
23	C/C(=N\NC(=O)C1COc2ccccc2O1)c1ccc(Cl)s1 (stereo not given)	12%[46.1 µM]	.	-10%	45%[activator]
24	O=C(OC(C(=O)NCc1ccc(F)cc1)c1ccccc1)c1ccco1 (stereo not given)	-2%[46.1 µM]	4%	14%	15%
25	O=C(c1cccc(N2C(=O)c3ccccc3C2=O)c1)N1CCCC(C(F)(F)F)C1 (stereo not given)	2%	.	1%	-19%
26	CCOC(=O)C1=C(COC(=O)/C=C/c2ccccc2Cl)NC(=O)NC1C (stereo not given)	16%	-38%	13%	5%
27	COc1ccc2nc3cc([N+](=O)[O-])ccc3c(NNc3ccc([N+](=O)[O-])cc3)c2c1	-3%	.	26%	-24%
28	COc1ccccc1CCNC(=O)Cn1ccc2cc(S(=O)(=O)N3CCC(C)CC3)ccc21	.	-5%	.	5%
29	O=C(C1CCN(S(=O)(=O)N2CCCC2)CC1)N1CCCCC1	5%	-1%	-4%	.
30	Cc1cc(Oc2ccc(C(F)(F)F)cc2[N+](=O)[O-])c2c3c(c(=O)oc2c1)CCCC3	?	16%	?	?

cpd	RE007 growth inh	SARS PLpro yeast	Cruzain inh Det	Cruzain inh noDet
14	-10%	?	-6.7%	30%
15	3%	0%	.	.
16	-5%	2%	-4.1%	-5%
17	.	-16%	-0.9%	-2%
18	-28%	1%	.	.
19	.	-26%	-11%	6%
20	-3%	.	3.8%	-7%
21	2%	-8%	-5.2%	-8%
22	-20%	8%	.	.
23	2%	-1%	.	.
24	-15%	-1%	.	.
25	-21%	0%	.	.
26	-21%	-2%	.	.
27	10%	.	.	.
28	12%	-1%	.	.
29	15%	-1%	1.0%	11%
30	5%	-9%	-3.5%	?

# Compounds above that have a thiophene ring, fused or not (2):
cpd	SMILES	MARV entry inh	NS1 inh	LASV entry inh	StopGo reporter
18	CN1CCc2c(sc(N)c2C(=O)c2ccc(Cl)cc2)C1	1%[46.1 µM]	-2%	-1%[46.1 µM]	-1%
23	C/C(=N\NC(=O)C1COc2ccccc2O1)c1ccc(Cl)s1 (stereo not given)	12%[46.1 µM]	.	-10%	45%[activator]

cpd	RE007 growth inh	SARS PLpro yeast	Cruzain inh Det	Cruzain inh noDet
18	-28%	1%	.	.
23	2%	-1%	.	.

# Compound profiles (already shown). Order of values: MARV entry inh, NS1 inh, LASV entry inh, StopGo reporter, RE007 growth inh, SARS PLpro yeast, Cruzain inh Det, Cruzain inh noDet
# `Cc1cc(Oc2ccc(C(F)(F)F)cc2[N+](=O)[O-])c2c3c(c(=O)oc2c1)CCCC3` as listed: ?, 16%, ?, ?, 5%, -9%, -3.5%, ?
# `O=C(OC(C(=O)NCc1ccc(F)cc1)c1ccccc1)c1ccco1` (stereo not given) as listed: -2%[46.1 µM], 4%, 14%, 15%, -15%, -1%, ., .

# Further structures follow:
cpd	SMILES	MARV entry inh	NS1 inh	LASV entry inh	StopGo reporter
31	Cc1ccccc1NC(=S)NC(=O)C1CCCCC1	.	3%	.	27%
32	CC(C)=C1C2CCC1C1C(=O)N(CCc3ccccc3)C(=O)C21 (stereo not given)	4%	-2%	-1%	-15%
33	CCC(C)N(C(=O)Cn1nnc2ccccc21)C(C(=O)Nc1ccc(F)cc1)c1cccc(OC)c1 (stereo not given)	?	?	?	.
34	O=C(c1cccc([N+](=O)[O-])c1)N1CCCC(C(=O)N2CCCCCC2)C1 (stereo not given)	?	-1%	-10%	-3%
35	CC1C=CCCC12C(=O)NC(=O)NC2=O (stereo not given)	14%	.	15%	-6%
36	FC(F)Oc1ccc(NC(=S)NCc2nc3ccccc3[nH]2)cc1	?	-1%	-13%	41%[activator]
37	CC1(C)CC(=O)C(C=Nc2ccc(C(=O)c3ccccc3)cc2N=CC2=C(O)CC(C)(C)CC2=O)=C(O)C1	-7%[46.1 µM]	18%	-35%[46.1 µM]	-6%
38	CCN(c1ccc(NC(=O)COC(=O)/C=C/c2ccco2)cc1)C(C)C	-6%	.	14%	-2%
39	CCCCNC(=O)N1CCN(c2ccccc2OC)CC1	7%[46.1 µM]	-3%	25%[46.1 µM]	2%
40	CC(C)C(NC(=O)c1cccs1)C(=O)NC1CCCCC1 (stereo not given)	.	4%	.	-21%
41	COc1cc(CC2(CCc3ccncc3)C(=O)NC(=O)NC2=O)cc(OC)c1OC	1%	3%	?	12%
42	COc1cc(OC)c(NC(=O)Nc2sc3nc4n(c(=O)c3c2C)CCC(C)CC4)cc1Cl (stereo not given)	0%[46.1 µM]	.	.	?
43	CCCn1c(SCC(=O)N2CCN(c3ccccc3)CC2)nc2ccccc2c1=O	1%&1%	-79%	6%	-5%
44	OCCCCNCc1cc(Br)ccc1OCc1ccccc1	?	0%	-16%	-13%
45	COc1ccccc1NC(=O)COC(=O)c1ccccc1SCC(=O)N1CCCC1	?	.	2%	-2%
46	COc1ccc(Cc2nc3ccc(S(N)(=O)=O)cc3[nH]2)cc1OC	-7%	-3%	15%	-14%
47	Cc1c(C)c2ccc(OCc3ccc(C(=O)O)o3)c(C)c2oc1=O	?	1%	4.1µM*	18µM*

cpd	RE007 growth inh	SARS PLpro yeast	Cruzain inh Det	Cruzain inh noDet
31	-25%	17%	.	.
32	7%	-9%	-2.1%	-5%
33	-2%	-2%	1.3%	7%
34	25%	2%	.	.
35	2%	.	.	.
36	-13%	0%	.	.
37	-1%	-1%	.	.
38	?	-3%	.	.
39	13%	-2%	.	.
40	-7%	-1%	.	.
41	3%	0%	.	.
42	.	.	-1.9%	-16%
43	8%	-1%	-1.7%	5%
44	-5%	1%	.	.
45	16%	.	.	.
46	12%	-5%	2.8%	-17%
47	3%	-7%	-22%	-12%

# Nos. 46–47, reprinted for reference:
cpd	SMILES	MARV entry inh	NS1 inh	LASV entry inh	StopGo reporter
46	COc1ccc(Cc2nc3ccc(S(N)(=O)=O)cc3[nH]2)cc1OC	-7%	-3%	15%	-14%
47	Cc1c(C)c2ccc(OCc3ccc(C(=O)O)o3)c(C)c2oc1=O	?	1%	4.1µM*	18µM*

cpd	RE007 growth inh	SARS PLpro yeast	Cruzain inh Det	Cruzain inh noDet
46	12%	-5%	2.8%	-17%
47	3%	-7%	-22%	-12%
